NPYLR7 ag – activates Aedes aegypti NPYLR7 receptor; HEK293T NPYLR7/Galpha15, GCaMP6s calcium fluorescence; activation, % at 10 µM; hit rate 0.15% among 270,000; AID 1259423; in the data active = activation above about 40%;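 also: 0% = vehicle and 100% = reference agonist at the receptor; some compounds past the cut are filed as inactive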
NPYLR7 ag max-min – further read-out of NPYLR7 ag, marked with its call; activation, %; measured here: Max-Min RFU normalised activation; some inactives read as strong as hits;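 span of the calcium signal over five minutes; 0% = vehicle and 100% = native peptide agonist; compound fluorescence can raise it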
Starred values were filed as active, the others as inactive; & = joins results of further samples. Some of the compounds tested; the hit share may differ from the screen's.

Values run as follows: NPYLR7 ag, NPYLR7 ag max-min
C=CCONC(=O)c1cccnc1N1CCCC1c1ccccc1 (centres undefined)
 : -0.9, 0.9
COc1ccc(C=[N+](C)[O-])c(OC)c1
 : 0.1, 3.7
COC(=O)[C@@H]1C[C@@H](NC(=O)C(c2ccccc2)c2ccccc2)CN1Cc1ccc(O)cc1
 : 33.6, 16.3
Cc1cnc(CN(C)C(=O)CC2C(=O)NCCN2Cc2cccc(F)c2F)[nH]1 (centres undefined)
 : 3.2&-5.0, -0.9&-7.3
CC(c1ccccc1F)N(C(=O)Nc1nccs1)C1CC1 (centres undefined)
 : 5.2, 1.3
Cc1ccoc1C(=O)NCc1cnn2ccccc12
 : -5.6, -7.5
Cn1c(O)c(N=NC(=O)CNC(=O)/C=C/c2ccco2)c2ccccc21
 : -9.4, -14.1
CCCCCCNC(=O)c1csc(CN(C(=O)Nc2ccc(C(C)C)cc2)C(C)C)n1
 : 15.1, 21.3
COc1cccc(C(=O)Nc2ccc(C3SCC(=O)N3c3ccc(C(F)(F)F)cc3)cc2)c1 (centres undefined)
 : -3.3, 13.2
Fc1ccc(CN(Cc2ccncc2)Cc2ccc3[nH]ccc3c2)cc1
 : -5.4, -8.3

Later entries.
Values run as follows: NPYLR7 ag, NPYLR7 ag max-min
O=S1(=O)CCC(Cc2nc3ccccc3n2CN2CCCC2c2cccs2)C1 (centres undefined)
 : 7.2, 14.6
OCC1(CC2CCCCO2)CCN(c2cnc3ccccc3n2)CC1 (centres undefined)
 : -5.6, -7.2
Cc1ccccc1OCC(O)CN(Cc1ccc(F)cc1F)CC1CCCO1 (centres undefined)
 : 18.0, 15.0
OCCCN1CCN(c2ncc(Cl)cc2F)CC1
 : 7.6, 5.6
Cn1c(=O)c2c(ncn2Cc2cc(=O)n3ccsc3n2)n(C)c1=O
 : 10.4, 12.5
CCOC(=O)C=C1SCC(=O)N1CCSc1nnc(C)s1
 : -0.4, 4.2
CC1(C)NC(=O)N(CC(O)CN2C(=O)NC(C)(C)C2=O)C1=O
 : 3.8, -0.9
CC(C)(C)c1ccc(S(=O)(=O)NC(=O)C2(C)CCN2C(=O)Cc2cccc3ccccc23)cc1 (centres undefined)
 : 4.8, 0.7
Cn1nc(C(C)(C)C)cc1Nc1cc2c(cn1)nc(-c1ccccc1)n2C
 : -0.8, -1.3
Cc1ccc(NC(=O)CC(=O)NCCc2nc3c(C)c(C)ccc3[nH]2)cc1
 : 3.4, 3.3

Further results.
Values run as follows: NPYLR7 ag, NPYLR7 ag max-min
CC1CN(C(=O)/C=C/c2ccccc2F)C(C)CO1 (centres undefined)
 : 9.7, 10.7
CCN(CC)C(=S)SSC(=S)N(CC)CC
 : -6.5&-9.2&-2.1&3.7, -12.4&-13.9&-3.7&-39.6
CCC(C)NCc1ccc(OC)c(OS(C)(=O)=O)c1 (centres undefined)
 : -7.8, 3.3
CCOC(=O)c1c(NC(=O)c2ccc(C)o2)sc2c1CCCCC2
 : -2.2, -5.4
CC(C)c1csc(C(=O)N2CC[C@@H]3CC[C@H](C2)N3C)n1
 : -0.6&2.8, 12.7&2.9
CCN(CCC#N)C(=O)CNc1cc(NC(C)=O)c(F)cc1F
 : 5.7, 5.7
Cc1cc2oc(=O)cc(C)c2cc1NC(=O)Cc1c[nH]c2ccccc12
 : 0.1, -2.5
CC(C)n1cnnc1CCNC(=O)Nc1cccc(C#N)c1
 : 1.1, -0.9
Cc1ccc(N(C(F)F)S(=O)(=O)c2cccs2)c(C)c1
 : -1.6, -4.4
Cc1cc(=O)n2[nH]cc(C(=O)NC(C)c3ccccc3)c2n1 (centres undefined)
 : -4.3, -8.9

(cont.)
Values run as follows: NPYLR7 ag, NPYLR7 ag max-min
CCCCN(C)c1cc(=O)n(-c2ccc(C)cc2)nc1C(=O)OCC
 : 5.0, 2.9
COc1ccc(C(=O)N2CCC(n3c(=O)oc4ccc(OC)cc43)CC2)cc1
 : -8.8, 2.0
CC(=O)n1c2ccccc2n2c(C)ncc12
 : -0.6, -3.0
CC1=C(C)CC2C(=O)N(c3ccccc3Cl)C(=O)C2C1 (centres undefined)
 : -3.5, -7.4
COc1ccc(C(=O)N(C)CC(N)=O)c(I)c1
 : -2.0, 19.9
COc1ccccc1C(=O)Nc1cccc(C2SCC(=O)N2c2cc(C)cc(C)c2)c1 (centres undefined)
 : 2.7, 4.0
Cc1ccc(C(=O)Nc2c(C)nc3sccn3c2=O)cc1
 : 15.3, 7.7
CC(CCNc1nc(-c2ccncc2)nc2c1CCNCC2)n1ccnc1 (centres undefined)
 : 14.7, -2.9
CC(=O)Nc1cccc(-c2ccnc(N)c2)c1
 : 0.2, -3.0
O=C(C1CCOCC1)N1CC[C@@H](c2ccc3ccccc3c2)[C@H](O)C1
 : 7.6, 5.6

(continued)
Values run as follows: NPYLR7 ag, NPYLR7 ag max-min
O=C(CCN1C(=O)c2ccccc2C1=O)N1CCOCCOCCOCC1
 : -3.5, -9.4
CCNC(=O)C1(C)CCCN1C(=O)c1c(F)cccc1F (centres undefined)
 : 3.4, 1.3
COCCn1cc(C(=O)N2CCN(CCc3ccccc3)CC2)c2nn(-c3ccccc3)c(=O)c-2c1
 : -2.0, -5.1
Cc1cccc(NC(=O)c2c(O)c3ccccc3[nH]c2=O)n1
 : 3.7, 3.6
COCCN(CC(=O)N(Cc1ccc(F)cc1)Cc1ccc(C)s1)C(=O)c1cccc(Br)c1
 : -3.3, -6.7
CN(CC(O)Cn1c2ccccc2c2ccccc21)S(C)(=O)=O (centres undefined)
 : -1.1, -4.0
CCc1nc(CC#N)nc(N2CCN(C(=O)c3cccs3)CC2)c1Cc1cccc(C)c1
 : 14.7, 23.9
CC1(C(=O)NCc2ccc3c(c2)OCO3)CCN1C(=O)C1(c2ccc(Cl)cc2)CCC1 (centres undefined)
 : 4.3, 2.7
COc1cccc(-c2cc(C(=O)Nc3ccc4c(c3)OCCO4)c3ccccc3n2)c1
 : -0.1, 4.0
CC(=O)n1c2ccccc2c2nc3ccccc3nc21
 : 12.4, 10.7

(further entries)
Values run as follows: NPYLR7 ag, NPYLR7 ag max-min
COCCNc1nc(Nc2ccc(C)cc2)c2nccnc2n1
 : 2.5, 5.8
CNc1nc(C(=O)N2C[C@@H]3C4CCC(CC4)[C@@H]3C2)cs1
 : 3.9, -0.2
CC(C(=O)Nc1ccc(F)cc1Cl)N(C)CC(=O)N1c2ccccc2NC(=O)CC1C (centres undefined)
 : 11.1, 8.3
COC(=O)c1ccc(CSc2nnc(CCn3ccc(=O)[nH]c3=O)o2)o1
 : -2.4, -3.4
CCOC(=O)C1=C(C(=O)OCC)SC(=C2C(=S)C(C)(C)N(C(C)=O)c3ccccc32)S1
 : -11.7, -16.8
COc1ccccc1N1CCN(CC(=O)C(C#N)c2nc(-c3ccc(Cl)cc3)cs2)CC1 (centres undefined)
 : -5.1, -2.8
CCC(=O)N1CCCC(C(=O)NC2(C)CCc3ccccc3C2)C1 (centres undefined)
 : -16.0&-4.6, -19.5&-3.7
O=C(CN1CN(c2ccccc2)C2(CCN(S(=O)(=O)c3ccc(Br)cc3)CC2)C1=O)N1CCCC1
 : -2.0, 11.7
O=C(CN1CCC2CCCCC2C1)N1CCC(c2ccccc2)=N1 (centres undefined)
 : 11.1, 6.8
COc1cccc2sc(=NC(=O)c3cc(C)on3)n(C)c12
 : 2.2, -2.1

Following part
Values run as follows: NPYLR7 ag, NPYLR7 ag max-min
CCOC(=O)c1c(NC(=O)CCN2C(=O)c3ccccc3C2=O)sc2c1CCCC2
 : 11.5, 8.9
O=C(NC1CCN(c2ccccc2C(=O)N2CCOCC2)CC1)c1cccc(F)c1
 : 0.8, 4.1
CCOC(=O)C1(Cc2ccccc2)CCN(Cc2ccc3cc(NC(C)=O)ccc3n2)CC1
 : 1.7, 1.7
COCc1nc(-c2ccccc2)nc(N2CCN(C(=O)C3CCC3)CC2)c1Cc1c(F)cccc1Cl
 : 23.4, 29.6
CCCC(=O)N1CCC(C(=O)NCCNC(=O)c2ccccc2)CC1
 : 9.3, 7.2
CCOC(=O)Cc1csc(NC(=S)NC(=O)c2ccc(F)cc2)n1
 : 8.7, 11.5
CC(=O)Nc1ccc(-n2ccc3c(cnc4nc(C)nn43)c2=O)cc1
 : 5.9, 10.2
Cc1ccccc1C1c2ccsc2CCN1C(=O)CN(C(=O)c1cccc([N+](=O)[O-])c1)C1CCCCC1 (centres undefined)
 : -8.6, -2.2
C=CCC(=O)NCC1CCN(Cc2ccc3occc3c2)CC1
 : 0.5, 1.8
CCN1CCN(C(c2ccccc2)c2c(O)cc(C)n(Cc3ccco3)c2=O)CC1 (centres undefined)
 : 4.9, 2.8

Continued:
Values run as follows: NPYLR7 ag, NPYLR7 ag max-min
Cc1cc(C(=O)NOCCO)c(Nc2ccc(I)cc2F)n(C)c1=O
 : -3.8, -13.0
CCn1nc(C)c(CN(C)CC2CCN(Cc3ccc(C)o3)CC2)c1C
 : 4.2, 2.3
CC(Sc1ncc(-c2ccc(Br)cc2)[nH]1)C(=O)N1CCCC1 (centres undefined)
 : -3.4, -3.4
O=C(CSc1nc(=O)n(CC2CCCO2)c2c1CCC2)Nc1nccs1 (centres undefined)
 : -3.4, -8.4
O=C(O)NC1CCS(=O)(=O)C1 (centres undefined)
 : 11.2, 5.7
Cn1cnc(S(=O)(=O)N2CCCCC2c2cc(C(=O)NCc3ccc(Cl)c(Cl)c3)no2)c1 (centres undefined)
 : -5.2, -7.1
CC(=O)c1c(C)cc(C)c(CNc2ccc(C)c(S(=O)(=O)N3CCOCC3)c2)c1C
 : 9.1, 6.1
CC(=O)Nc1ccc(Cl)c(C(=O)N2CCC(Oc3cccc(C)c3)CC2)c1
 : 0.5, -3.1
O=C(CCC(=O)NC1CCCCCCC1)NCC(O)c1ccccc1 (centres undefined)
 : 8.5, -2.2
C#CCN1CCC(C(=O)Nc2cc3c(cc2Br)OCCO3)CC1
 : -0.1, 13.8

New compounds follow
Values run as follows: NPYLR7 ag, NPYLR7 ag max-min
O=C1NC(=O)C(CC(=O)N2CCN(Cc3cc(=O)c(OCc4ccc(F)cc4)co3)CC2)N1 (centres undefined)
 : 29.6, 11.9
CCN(CC)P1(=Nc2ccccc2C)C(=C2N(C)c3ccccc3C2(C)C)C=NN1C (centres undefined)
 : 8.6, 9.6
COc1ccccc1-n1c(SCC(=O)c2ccccc2)nc2c(c1=O)SCC2
 : -5.8, -6.7
Cc1cccc(N2CCN(CN3C(=O)NC4(CCCCCC4)C3=O)CC2)c1
 : 2.7, 8.3
COC(=O)CCCC(=O)N1CCCC(CNC(=O)c2cc(OC)cc(OC)c2)C1 (centres undefined)
 : 0.6, -4.0
Cc1ccc(-c2nc(CCNC(=O)c3cccc(C)c3)cs2)cc1
 : 20.1, 17.8
C(=N/Nc1nc(N2CCOCC2)nc(N2CCOCC2)n1)/c1c[nH]c2ccccc12
 : 11.7, -4.2
FC(F)Oc1ccccc1CSc1nnc(-c2cc(-c3ccccc3)nc3ccccc23)n1CC1CCCO1 (centres undefined)
 : 0.1, 5.5
CCNc1nc(C)c(C(=O)N(Cc2ccccc2OC)C2CC2)s1
 : -4.0, -8.1
CCCc1cc(=O)[nH]c(N=C(N)Nc2ccc(F)cc2)n1
 : -0.6, -0.3

Reprinted at random: 3 entries already listed
Values run as follows: NPYLR7 ag, NPYLR7 ag max-min
CCNc1nc(C)c(C(=O)N(Cc2ccccc2OC)C2CC2)s1
 : -4.0, -8.1
Cc1cccc(N2CCN(CN3C(=O)NC4(CCCCCC4)C3=O)CC2)c1
 : 2.7, 8.3
CCN(CC)P1(=Nc2ccccc2C)C(=C2N(C)c3ccccc3C2(C)C)C=NN1C (centres undefined)
 : 8.6, 9.6

Later entries.
Values run as follows: NPYLR7 ag, NPYLR7 ag max-min
O=C(COc1cccc(NS(=O)(=O)c2ccccc2)c1)N1CCCC1
 : -2.9, -3.3
Oc1ccc(-c2nc3ccccn3c2NCc2ccccc2)cc1
 : 12.3&7.4, 10.6&11.9
CC1(C)OC(=O)C(C2(c3ccccc3)C3CC4CC(C3)CC2C4)C(=O)O1 (centres undefined)
 : -4.8, -5.2
Cc1ccc(Oc2nc(C)nc(N(C)Cc3ccc(F)cc3)c2N)cc1
 : 15.6, 8.4
Cc1cc(S(=O)(=O)NCCn2nc(-c3ccncc3)ccc2=O)ccc1F
 : 9.1, -1.2
O=C(NCc1cccc(C(F)(F)F)c1)C1CCN(c2nc3nc[nH]c(=O)c3s2)CC1
 : 6.8, 8.9

Entries listed so far with an aryl methoxy group (12):
Values run as follows: NPYLR7 ag, NPYLR7 ag max-min
COc1ccc(C=[N+](C)[O-])c(OC)c1
 : 0.1, 3.7
COc1cccc(C(=O)Nc2ccc(C3SCC(=O)N3c3ccc(C(F)(F)F)cc3)cc2)c1 (centres undefined)
 : -3.3, 13.2
CCC(C)NCc1ccc(OC)c(OS(C)(=O)=O)c1 (centres undefined)
 : -7.8, 3.3
COc1ccc(C(=O)N2CCC(n3c(=O)oc4ccc(OC)cc43)CC2)cc1
 : -8.8, 2.0
COc1ccc(C(=O)N(C)CC(N)=O)c(I)c1
 : -2.0, 19.9
COc1ccccc1C(=O)Nc1cccc(C2SCC(=O)N2c2cc(C)cc(C)c2)c1 (centres undefined)
 : 2.7, 4.0
COc1cccc(-c2cc(C(=O)Nc3ccc4c(c3)OCCO4)c3ccccc3n2)c1
 : -0.1, 4.0
COc1ccccc1N1CCN(CC(=O)C(C#N)c2nc(-c3ccc(Cl)cc3)cs2)CC1 (centres undefined)
 : -5.1, -2.8
COc1cccc2sc(=NC(=O)c3cc(C)on3)n(C)c12
 : 2.2, -2.1
COc1ccccc1-n1c(SCC(=O)c2ccccc2)nc2c(c1=O)SCC2
 : -5.8, -6.7
COC(=O)CCCC(=O)N1CCCC(CNC(=O)c2cc(OC)cc(OC)c2)C1 (centres undefined)
 : 0.6, -4.0
CCNc1nc(C)c(C(=O)N(Cc2ccccc2OC)C2CC2)s1
 : -4.0, -8.1

Source: PubChem BioAssay
